# Source: PubChem
# HIV Env fusion: blocks HIV Env-driven cell-cell fusion; HeLa-JRFL Env/CEM21 cell fusion, luciferase; inhibition, % at 12.3 µM; AID 651610; hit rate 1.1% among 360,000;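 active = mean replicate inhibition score of at least 50 and every replicate individually at or above 50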;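 note: 0% = plate neutral controls and 100% = maraviroc near 300 nM; one replicate is shown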
# UUG fidelity: yeast start codon fidelity modulation; S. cerevisiae UUG-firefly luciferase reporter, luminescence/redox ratio; activity score, % at 18.7 µM; hit rate 0.13% among 350,000; AID 602363;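 active = replicate mean at a twofold rise or more, about +100% in these data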;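 note: firefly luciferase made from a UUG start codon reports start codon fidelity; reporter light over untreated wells divided by growth signal over untreated wells; some hits fall short of that in this replicate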
# * hit, by the source's call; [ ] = dose if it differs, or a comment. An excerpt; count on the stated rates, not on these rows.
# A first look:
# The line under a structure holds: HIV Env fusion	UUG fidelity
C[C@H]1CN([C@@H](C)CO)C(=O)Cc2cc(NC(=O)Cc3ccccc3)ccc2O[C@@H]1CN(C)Cc1ccc2c(c1)OCO2
  -2[16.7 µM]	5
O=C(C[C@H]1C[C@@H]2c3cc(NC(=O)Nc4ccc(C(F)(F)F)cc4)ccc3O[C@@H]2[C@@H](CO)O1)NCc1ccccn1
  19[16.7 µM]	-24
C[C@H](CO)N1C[C@H](C)[C@H](CN(C)S(=O)(=O)c2cccs2)OCCCC[C@H](C)Oc2ccc(NC(=O)Nc3ccc(C(F)(F)F)cc3)cc2C1=O
  36[16.7 µM]	12
Cc1ccc(S(=O)(=O)N(C)C[C@H]2Oc3c(NC(=O)Nc4ccc(F)cc4)cccc3C(=O)N([C@@H](C)CO)C[C@H]2C)cc1
  25[16.7 µM]	-5
Cc1noc(C)c1S(=O)(=O)N(C)C[C@H]1Oc2ccc(NS(=O)(=O)c3ccccc3)cc2CC(=O)N([C@H](C)CO)C[C@@H]1C
  -6[16.7 µM]	80
CC(C)NC(=O)N(C)C[C@@H]1Oc2cc(C#Cc3ccc(F)cc3)ccc2S(=O)(=O)N([C@H](C)CO)C[C@H]1C
  35[16.7 µM]	14

# Results, previewed entries included:
# The line under a structure holds: HIV Env fusion	UUG fidelity
C[C@H]1CN([C@@H](C)CO)C(=O)Cc2cc(NC(=O)Cc3ccccc3)ccc2O[C@@H]1CN(C)Cc1ccc2c(c1)OCO2
  -2[16.7 µM]	5
O=C(C[C@H]1C[C@@H]2c3cc(NC(=O)Nc4ccc(C(F)(F)F)cc4)ccc3O[C@@H]2[C@@H](CO)O1)NCc1ccccn1
  19[16.7 µM]	-24
C[C@H](CO)N1C[C@H](C)[C@H](CN(C)S(=O)(=O)c2cccs2)OCCCC[C@H](C)Oc2ccc(NC(=O)Nc3ccc(C(F)(F)F)cc3)cc2C1=O
  36[16.7 µM]	12
Cc1ccc(S(=O)(=O)N(C)C[C@H]2Oc3c(NC(=O)Nc4ccc(F)cc4)cccc3C(=O)N([C@@H](C)CO)C[C@H]2C)cc1
  25[16.7 µM]	-5
Cc1noc(C)c1S(=O)(=O)N(C)C[C@H]1Oc2ccc(NS(=O)(=O)c3ccccc3)cc2CC(=O)N([C@H](C)CO)C[C@@H]1C
  -6[16.7 µM]	80
CC(C)NC(=O)N(C)C[C@@H]1Oc2cc(C#Cc3ccc(F)cc3)ccc2S(=O)(=O)N([C@H](C)CO)C[C@H]1C
  35[16.7 µM]	14
COCC(=O)Nc1ccc2c(c1)[C@H]1C[C@@H](CC(=O)NCc3ccc(Cl)cc3)O[C@H](CO)[C@H]1O2
  -11[16.7 µM]	-2
C[C@@H]1CCCCO[C@H](CN(C)S(=O)(=O)c2ccc(F)cc2)[C@@H](C)CN([C@@H](C)CO)C(=O)c2cc(NS(=O)(=O)c3ccc(Cl)cc3)ccc2O1
  -16[16.7 µM]	2
CCS(=O)(=O)N[C@H]1C=C[C@@H](CC(=O)NC2Cc3ccccc3C2)O[C@@H]1CO
  5[16.7 µM]	-14
Cc1noc(C)c1NC(=O)Nc1cccc2c1O[C@@H](CN(C)C(=O)Nc1ccccc1)[C@H](C)CN([C@H](C)CO)C2=O
  8[16.7 µM]	-10
C[C@@H]1CN([C@H](C)CO)C(=O)c2cc(-c3ccccc3)cnc2O[C@H]1CN(C)C(=O)Cc1ccccc1
  -8[16.7 µM]	-5
C[C@@H]1CN([C@@H](C)CO)C(=O)c2cc(C#C[C@@H](C)O)cnc2O[C@H]1CN(C)CC1CCCC1
  -12[16.7 µM]	-4
COc1ccc(NC(=O)Nc2ccc3c(c2)C(=O)N([C@@H](C)CO)C[C@H](C)[C@@H](CN(C)Cc2ccc(C(=O)O)cc2)OCCCC[C@H](C)O3)cc1
  -13[16.7 µM]	10
C[C@@H]1CN([C@H](C)CO)C(=O)Cc2cc(NS(C)(=O)=O)ccc2O[C@@H]1CN(C)Cc1ccc2c(c1)OCO2
  -4[16.7 µM]	-11
C[C@H]1CN([C@@H](C)CO)C(=O)c2cc(-c3ccc(C#N)cc3)cnc2O[C@@H]1CN(C)Cc1ccccn1
  28[16.7 µM]	-26
COC(=O)C1=C/c2ccccc2C(C2CC2)N(Cc2ccc(OC)cc2)/C=C\1C(=O)OC (stereo not given)
  7[16.7 µM]	-18
O=C(C[C@H]1C=C[C@@H](NS(=O)(=O)c2ccccc2)[C@H](CO)O1)NCc1ccncn1
  -7[16.7 µM]	-9
CCCC(=O)Nc1ccc2c(c1)OC[C@@H](C)N(C(=O)c1ccncc1)C[C@@H](C)[C@H](OC)CN(C)C2=O
  6[16.7 µM]	2
C[C@@H](NC(=O)C[C@H]1CC[C@@H]2[C@H](COC[C@H](O)CN2C(=O)Nc2cccc(Cl)c2)O1)c1ccccc1
  -15[16.7 µM]	13
C[C@@H]1CN([C@@H](C)CO)C(=O)c2cc(-c3cccc(C#N)c3)cnc2O[C@H]1CN(C)Cc1ccc(F)cc1
  3[16.7 µM]	-3
CCCC#Cc1ccc([C@H]2[C@H](C#N)N(S(=O)(=O)c3cccc(F)c3)[C@H]2CO)cc1
  -28[16.7 µM]	3
C[C@@H]1CN([C@H](C)CO)C(=O)c2cc(NC(=O)C3CCCCC3)ccc2O[C@@H]1CN(C)C(=O)Nc1cccc2ccccc12
  -3[16.7 µM]	-3
COc1cccc(S(=O)(=O)N(C)C[C@H]2Oc3ncc(C#CCC(C)C)cc3C(=O)N([C@H](C)CO)C[C@H]2C)c1
  -18[16.7 µM]	3
C[C@@H]1CCCCO[C@@H](CN(C)C(=O)Nc2ccc3c(c2)OCO3)[C@@H](C)CN([C@H](C)CO)C(=O)c2cc(NS(=O)(=O)c3cccs3)ccc2O1
  4[16.7 µM]	-1
CNC(=O)C[C@H]1CC[C@H]2[C@@H](COc3ccc(NC(=O)CC(F)(F)F)cc3C(=O)N2C)O1
  -9[16.7 µM]	11
COc1ccc(S(=O)(=O)N2C[C@H](O)COC[C@@H]3O[C@@H](CC(=O)N[C@@H]4CCN(Cc5ccccc5)C4)CC[C@H]32)cc1
  -9[16.7 µM]	2
CCC(=O)N[C@H]1CC[C@@H](CCn2cc(-c3cccc(OC)c3)nn2)O[C@@H]1CO
  -2[16.7 µM]	5
C[C@H](CO)N1C[C@H](C)[C@@H](CN(C)Cc2ccccc2)Oc2ccc(NS(=O)(=O)c3cccs3)cc2CC1=O
  6[16.7 µM]	-4
CC(C)C(=O)Nc1ccc2c(c1)C(=O)N(C)[C@@H]1CC[C@H](CC(=O)N[C@@H](C)c3ccccc3)O[C@@H]1CO2
  -11[16.7 µM]	15
O=C(Nc1ccc2c(c1)OCO2)N[C@@H]1C=C[C@@H](CC(=O)N2CCN(c3ccccc3)CC2)O[C@H]1CO
  -4[16.7 µM]	-8
C/C=C/c1ccc2c(c1)O[C@@H](CN(C)C(=O)Nc1cc(F)ccc1F)[C@@H](C)CN([C@H](C)CO)S2(=O)=O
  4[16.7 µM]	-4
CCNC(=O)C[C@@H]1CC[C@@H]2[C@@H](COc3ccc(NS(C)(=O)=O)cc3C(=O)N2C)O1
  -9[16.7 µM]	2
Cc1ccc(S(=O)(=O)N[C@H]2CC[C@H](CC(=O)NCCN3CCCCC3)O[C@H]2CO)cc1
  -12[16.7 µM]	-9
C[C@H](CO)N1C[C@H](C)[C@@H](CN(C)CC2CC2)Oc2c(NC(=O)c3cnccn3)cccc2C1=O
  16[16.7 µM]	-9
CC(C)NC(=O)N(C)C[C@H]1Oc2ccc(NC(=O)Nc3cccc4ccccc34)cc2CC(=O)N([C@@H](C)CO)C[C@H]1C
  28[16.7 µM]	-49
COc1ccc(NC(=O)N(C)C[C@@H]2OCCCC[C@@H](C)Oc3ccc(NC(=O)Nc4ccc(F)cc4)cc3C(=O)N([C@H](C)CO)C[C@@H]2C)cc1
  9[16.7 µM]	-3
Cn1cnc(S(=O)(=O)N2C[C@H](O)COC[C@@H]3O[C@@H](CC(=O)N4CCN(c5ccccc5)CC4)CC[C@H]32)c1
  -5[16.7 µM]	2
COc1ccc(NC(=O)N(C)C[C@@H]2Oc3c(NS(C)(=O)=O)cccc3C(=O)N([C@H](C)CO)C[C@H]2C)cc1
  -10[16.7 µM]	-10
COc1ccc(NC(=O)N(C)C[C@@H]2Oc3ccc(NS(=O)(=O)c4ccccc4)cc3C(=O)N([C@H](C)CO)C[C@@H]2C)cc1
  -3[16.7 µM]	-2
C=CCN1C(=O)[C@]2(O[C@H](CCO)[C@@H]([Si](C)(C)c3ccc(OC)cc3)[C@@H]2C)c2cc(I)ccc21
  49[16.7 µM]	6
O=C1O[C@H](c2ccccc2)[C@H](c2ccccc2)N2[C@H]1[C@@H](C(=O)NC[C@H](O)c1ccccc1)[C@]1(C(=O)Nc3ccc(C#CCCO)cc31)[C@H]2c1ccc(OCCO)cc1
  -23[16.7 µM]	-3
CC(=O)Nc1ccc2c(c1)C(=O)N(C)[C@@H]1CC[C@H](CC(=O)NC3CCCCC3)O[C@H]1CO2
  -1[16.7 µM]	-3
C[C@@H]1CN([C@@H](C)CO)C(=O)Cc2cc(NC(=O)c3ccncc3)ccc2O[C@H]1CN(C)Cc1ccc(-c2ccccc2)cc1
  34[16.7 µM]	2
COc1ccc(-c2ccc([C@H]3[C@@H](C#N)N(C(=O)NC(C)C)[C@H]3CO)cc2)cc1
  23[16.7 µM]	9
Cc1ccc(S(=O)(=O)N[C@H]2CC[C@@H](CCn3cc(C4CC4)nn3)O[C@@H]2CO)cc1
  23[16.7 µM]	-5
Cc1ccc(S(=O)(=O)N(C)C[C@@H]2Oc3ccc(NC(=O)Cn4cnnn4)cc3CC(=O)N([C@@H](C)CO)C[C@@H]2C)cc1
  33[16.7 µM]	5
O=C(C[C@H]1C[C@@H]2c3cc(NS(=O)(=O)c4ccc(F)cc4)ccc3O[C@@H]2[C@H](CO)O1)NC1CCCC1
  14[16.7 µM]	-13
CCCN(C)C[C@H]1Oc2cc(-c3ccccc3)ccc2S(=O)(=O)N([C@H](C)CO)C[C@H]1C
  8[16.7 µM]	-11
COCC(=O)Nc1ccc2c(c1)C(=O)N(C)C[C@@H](OC)[C@@H](C)CN(Cc1ccccc1)[C@@H](C)CO2
  3[16.7 µM]	7
C[C@@H]1CCCCO[C@@H](CN(C)C(=O)c2ccncc2)[C@H](C)CN([C@@H](C)CO)C(=O)c2cc(NS(=O)(=O)c3ccc(F)cc3)ccc2O1
  1[16.7 µM]	-1
O=C(C[C@H]1C[C@H]2c3cc(NC(=O)NC4CCCC4)ccc3O[C@H]2[C@H](CO)O1)NCc1cccc(F)c1
  32[16.7 µM]	-1
CC(=O)N(C)C[C@H]1Oc2cc(-c3ccc(F)cc3)ccc2S(=O)(=O)N([C@H](C)CO)C[C@@H]1C
  -10[16.7 µM]	20
COc1ccccc1CN(C)C[C@@H]1OCc2cnnn2CCCC(=O)N([C@H](C)CO)C[C@@H]1C
  2[16.7 µM]	-4
CC(C)c1cn(CC[C@@H]2CC[C@H](NC(=O)C3CCCC3)[C@H](CO)O2)nn1
  2[16.7 µM]	9
COCCNC(=O)C[C@@H]1C[C@H]2c3cc(NS(=O)(=O)c4ccc(F)cc4)ccc3O[C@H]2[C@@H](CO)O1
  -28[16.7 µM]	-6
C[C@H](CO)N1C[C@H](C)[C@H](CN(C)Cc2cccnc2)Oc2cc(C#CC3CC3)ccc2S1(=O)=O
  1[16.7 µM]	8
C[C@@H]1CCCCO[C@@H](CN(C)C(=O)NC2CCCCC2)[C@H](C)CN([C@@H](C)CO)C(=O)c2cc(NC(=O)Nc3ccccc3)ccc2O1
  -3[16.7 µM]	-8
C[C@H]1CN([C@@H](C)CO)C(=O)Cc2cc(NS(=O)(=O)c3ccccc3)ccc2O[C@@H]1CN(C)Cc1ccc(Oc2ccccc2)cc1
  -22[16.7 µM]	11
CCC(=O)N(C)C[C@H]1Oc2ncc(C#C[C@@H](C)O)cc2C(=O)N([C@@H](C)CO)C[C@H]1C
  -19[16.7 µM]	-4
COc1ccc(NC(=O)N(C)C[C@H]2OCCCC[C@@H](C)Oc3ccc(NC(=O)c4ccncc4)cc3C(=O)N([C@@H](C)CO)C[C@H]2C)cc1
  5[16.7 µM]	1

# The results go on.
# The line under a structure holds: HIV Env fusion	UUG fidelity
C[C@H](CO)N1C[C@H](C)[C@H](CN(C)S(=O)(=O)c2ccc(F)cc2)Oc2ccc(NS(=O)(=O)c3cccs3)cc2C1=O
  14[16.7 µM]	1
C[C@@H]1CCCCO[C@H](CN(C)C(=O)Nc2ccc(F)cc2)[C@H](C)CN([C@@H](C)CO)C(=O)c2cc(N(C)C)ccc2O1
  32[16.7 µM]	6
COc1ccc(C(=O)Nc2ccc3c(c2)C(=O)N(C)C[C@@H](OC)[C@H](C)CN[C@@H](C)CO3)cc1
  3[16.7 µM]	-10
CCC(=O)N1C[C@H](C)[C@H](OC)CN(C)C(=O)c2cc(NC(=O)c3cnccn3)ccc2OC[C@H]1C
  -5[16.7 µM]	3
C[C@H](CO)N1C[C@H](C)[C@@H](CN(C)CC2CCCCC2)Oc2ccc(NC(=O)C3CC3)cc2C1=O
  0[16.7 µM]	-8
C[C@H](CO)N1C[C@H](C)[C@H](CN(C)Cc2ccc(C(=O)Nc3ccccc3N)cc2)Oc2ccc(NC(=O)C3CCCCC3)cc2CC1=O
  -10[16.7 µM]	2
C[C@@H]1CCCCO[C@@H](CN(C)CC2CCCCC2)[C@H](C)CN([C@H](C)CO)C(=O)c2cc(NC(=O)Nc3ccc(C(F)(F)F)cc3)ccc2O1
  23[16.7 µM]	16
CN1CCN(C(=O)C[C@@H]2CC[C@@H]3[C@H](COC[C@@H](O)CN3C(=O)C3CCOCC3)O2)CC1
  -9[16.7 µM]	-7
C[C@H](CO)N1C[C@H](C)[C@@H](CN(C)CC2CCCC2)Oc2ncc(C#C[C@@H](C)O)cc2C1=O
  -9[16.7 µM]	-6
C[C@H](CO)N1C[C@H](C)[C@H](CN(C)C(=O)NC2CCCCC2)Oc2c(NS(=O)(=O)c3ccc(F)cc3)cccc2C1=O
  4[16.7 µM]	5
